MgrA DNA FP = S. aureus MgrA activity modulators, primary screen, biochemical, S. aureus Newman, fluorescence polarization; MgrA-DNA binding; inhibition, %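 (about 10 µg/mL by stock and volumes)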; 0.13% of 84,000 active;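 active = above 50% in either of two replicates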;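 note: 0% = protein plus DNA without compound and 100% = DNA alone without protein; higher means less MgrA bound to DNA so lower polarization; one replicate is shown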
Sa helicase inh = inhibitors of S. aureus replicative helicase, primary screen, biochemical, fluorescence unwinding readout; replicative DNA helicase (DnaC/DnaB), Staphylococcus aureus; purified S. aureus helicase, fluorescence unwinding assay; about half of the hits fall short of the stated cut; inhibition, %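 (tested at about 80 µM)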; 0.05% of 120,000 active;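 active = both duplicates at 50% or more, or one of them with a favoured structure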;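 note: 0% = mean of negative control wells and 100% = mean of positive control wells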
Starred values were filed as active, the others as inactive; · = no result given. Not all compounds are listed; rates above refer to the full screens.

SMILES	MgrA DNA FP	Sa helicase inh
Cc1ccsc1CNCC(O)c1ccccc1 (stereo not drawn)	-2.5	-7
COc1cc(NC(=O)NC2(c3ccccc3)CC2)c(OC)cc1Cl	-4.3	6
Cc1cccc(C2CC(=O)Nc3c2c(=O)n(C)c(=O)n3C)c1 (stereo not drawn)	·	28
N/C(=N\OC(=O)c1ccccc1)c1ccc(-c2csnn2)cc1	2.6	·
CCCC(C#N)c1ccc(Cl)cc1Cl (stereo not drawn)	-1.7	-12
Cn1c(=O)[nH]c(=O)c2c1nc(CN1CCN(Cc3ccccc3)CC1)n2Cc1ccc(Cl)cc1	·	0
CCN1CCCC1CNCC(=O)NC1(C)C2CCC(C2)C1(C)C (stereo not drawn)	-2.2	5
Cc1cc(C)c(NC(=O)C(C)OC(=O)c2nccnc2N)c(C)c1 (stereo not drawn)	·	-8
O=C1N=c2ccc([N+](=O)[O-])cc2=C1c1sc(=Nc2ccccc2)n(-c2ccccc2)c1O	-0.4	·
O=C(CCCN1C(=O)c2ccccc2C1=O)Nc1ccc(S(=O)(=O)N2CCOCC2)cc1	·	-8
COc1cc2ncnc(SCC(=O)NN)c2cc1OC	-1.4	·
COc1ccc(Br)cc1/C=N/c1ncn[nH]1	-0.8	14
CC(Oc1ccc(C=C2C(=O)c3ccccc3C2=O)cc1)C(=O)O (stereo not drawn)	4.6	24
Clc1ccc(CSc2nc3ncccc3[nH]2)cc1Cl	·	6
COc1ccc(CCN2CNC(=S)NC2)cc1OC	·	-14
Nc1cc(C(F)(F)F)ccc1N1CCCCC1	-2.4	·
O=C(O)c1ccccc1C(=O)c1ccc(Br)cc1	-2.9	-7
Cc1nc(-c2ccc(-n3nncc3-c3ccc(Br)cc3)cc2)cs1	·	-18
COc1ccc(/C=C2/SC(=Nc3ccccc3Cl)NC2=O)cc1	-1.4	·
CN1CCN(C(=O)C23CC4CC(CC(C4)C2)C3)CC1	4.7	1
CCOc1ccc(-c2cc(C(=O)NC(C)c3ccc4c(c3)OCCO4)[nH]n2)cc1 (stereo not drawn)	-3.3	13
CCCN1CCC(NC2CCCc3ccccc32)CC1 (stereo not drawn)	-3.9	9
CCN(Cc1ccccc1)C(=O)c1nc(-c2ccc(Cl)cc2)n2c1CCCCC2	0.1	4
CC(C)(C)c1ccc(OCc2ccc(-c3nnco3)cc2)cc1	-0.8	15
Nc1nonc1/C(=N/O)N1CCCCC1	-1.8	-2

Complete entries, quoted from the list. Screens in order: MgrA DNA FP	Sa helicase inh
Listed for Nc1nonc1/C(=N/O)N1CCCCC1 → -1.8	-2
Listed for CCCN1CCC(NC2CCCc3ccccc32)CC1 (stereo not drawn) → -3.9	9
Listed for COc1ccc(Br)cc1/C=N/c1ncn[nH]1 → -0.8	14
Listed for Cc1nc(-c2ccc(-n3nncc3-c3ccc(Br)cc3)cc2)cs1 → ·	-18
Listed for CC(C)(C)c1ccc(OCc2ccc(-c3nnco3)cc2)cc1 → -0.8	15

Next compounds.
SMILES	MgrA DNA FP	Sa helicase inh
CCN(CC)c1ccc(CNC(CC(=O)O)c2cccs2)cc1 (stereo not drawn)	·	-2
C=Cn1cc[n+](CC(=O)c2ccc(OC)cc2)c1	8.6	2
CC1CCN(S(=O)(=O)N2CCC(C(=O)O)CC2)CC1	·	7
O=C(CCc1nc2ccccc2s1)N1CCc2ccccc21	·	-22
CCc1c(O)nc(SCC(=O)N2CCOCC2)n(-c2ccccc2C)c1=O	·	4
N#Cc1c(N)n[nH]c1CCCNC(=O)C1c2ccccc2Oc2ccccc21	·	17
O=C(CCN1C(=O)S/C(=C\c2cccs2)C1=O)Nc1nccs1	·	0
Cc1cc(/C=N/N2CCN(C)CC2)c(C)n1CC(F)(F)F	·	2
CSc1nc2nc(C)cc(=O)n2[nH]1	-2.7	·
CC(C)CNC(=O)COc1ccc2ccccc2c1	·	-18
CCOC(=O)c1cnn(-c2c(Cl)cc(Cl)cc2Cl)c1-c1ccccc1	-1.6	·
CCOC(=O)C1C(=O)C=C(c2cccs2)CC1c1ccc(F)cc1 (stereo not drawn)	4.2	17
COCc1c(C(=O)OCc2cc(Cl)c3c(c2)OCO3)oc2ccccc12	·	-7
CCCCC(=O)NC(c1ccc(N(C)C)cc1)c1ccc2cccnc2c1O (stereo not drawn)	·	0
Cn1c(SCC(=O)N(c2ccccc2)C2CCCCC2)nnc1-c1ccco1	-1.0	·
O=C(CC1Sc2ncnn2C1=O)Nc1ccccc1 (stereo not drawn)	-4.7	1
COC(=O)c1ccc(NC2SC(=O)NC2=O)cc1 (stereo not drawn)	·	24
c1ccc(C2C/C(=N\n3cnnc3)c3ccccc3O2)cc1 (stereo not drawn)	3.1	-20
OCc1nc2ccccc2n1CC(O)Cn1ccc2ccccc21 (stereo not drawn)	·	-30
CCCNS(=O)(=O)c1cc(Cl)ccc1OC	-2.2	5
O=C(c1ccc(Cl)cc1)C(Oc1ccc(Cl)cc1)n1cncn1 (stereo not drawn)	·	15
OCCn1nnnc1NCc1ccc(Br)cc1	-4.0	7
O=C1COc2ccc(C(=O)CSc3nnc(-c4ccoc4)c(-c4ccoc4)n3)cc2N1	44	3
c1ccc2[nH]c(-c3nc4ccccc4s3)nc2c1	17	-6
N#Cc1ccccc1Cn1c(=O)n(Cc2ccc(C(=O)NCc3ccco3)cc2)c(=O)c2sccc21	1.3	8

(cont.)
SMILES	MgrA DNA FP	Sa helicase inh
CCOc1ccc2nc(NCCNC(=O)Nc3ccc(SC)cc3)c(C#N)cc2c1	4.5	3
CC(C)C(NC(=O)c1ccc(F)cc1)C(=O)OCc1ccccc1 (stereo not drawn)	4.5	1
Cc1ccccc1-n1nc(C)c2c1CC(C)(C)CC2=O	-1.2	12
C=CCN1C(=O)C(Cc2c[nH]c3ccccc23)NC1=S (stereo not drawn)	-2.7	10
c1ccc(CCNc2ncnc3scc(-c4ccccc4)c23)cc1	3.1	·
N#CSc1cc(SC#N)c(N)nc1N	1.6	·
S=c1oc2ccccc2n1CN1CCN(c2ccccn2)CC1	·	-14
COc1cc(/C=C2\Sc3ccccc3C2=O)cc(Br)c1O	-0.1	·
CCCC(=O)Nc1nc2ccc(C(=O)OCC)cc2s1	·	-12
Nc1ncnc2nc(SCc3nc4ccccc4n3Cc3ccccc3)[nH]c12	1.8	7
O=C(Cc1ncc(C(F)(F)F)cc1Cl)Nc1ccc(N2CCOCC2)cc1	-3.4	·
Cn1nc(Oc2ccc3ccc(=O)oc3c2)c(=O)n(C)c1=O	·	11
CC1(C)NC(=O)N(CN2C(=O)NC(C)(C)C2=O)C1=O	·	-25
Nc1nonc1NC(=O)CSc1ccc(Cl)cc1	1.4	-12
O=C1CCC(Sc2ccccc2C(=O)O)N1 (stereo not drawn)	1.0	·
COC(=O)NCc1cc2cc(Cl)ccc2[nH]1	1.0	6
O=C(O)c1ccccc1N=Cc1ccco1	8.8	13
CCN1C(=O)/C(=C\c2ccccc2)SC1=S	·	0
CC(NC(=O)CSc1nc(N)cc(=O)[nH]1)c1ccccc1 (stereo not drawn)	0.2	-2
OCc1ccc(OCCOCCOc2ccc(Cl)c3cccnc23)cc1	0.9	1
COc1ccc(/C=C2\SC(=O)N(CCNC(=O)C3CC(=O)N(c4ccc5c(c4)OCCO5)C3)C2=O)cc1OC (stereo not drawn)	·	-12
CCc1c(C)sc2[nH]c(=S)n(CC)c(=O)c12	·	-7
COc1cc(-c2nnc(COC(=O)[C@@H](NS(=O)(=O)c3ccccc3)C(C)C)o2)cc(OC)c1OC	·	-7
COC(=O)C1=CN(C(C)C)C=C(C(=O)OC)C1c1cccc(Br)c1	·	1
CC(C)(C)c1cc2c(c(C(C)(C)C)c1)OCN(CC(=O)O)C2	1.2	6

Additional compounds
SMILES	MgrA DNA FP	Sa helicase inh
CC1=CC(=C2C(=O)NC(=S)NC2=O)C=C(C(F)(F)F)N1CCN(C)C	·	-5
COC(=O)c1ccc(N2C(=O)C(C)SC2c2ccccc2)cc1 (stereo not drawn)	-1.6	20
CCOC(=O)c1c[nH]c2ccc(OC)cc2c1=O	-1.5	-2
Cc1c(C(=O)CN2C(=O)COc3ccc(Cl)cc32)c2ccccc2n1C	-1.2	13
COC(=O)c1ccc(C(=O)OC)c(N=CC2=C(O)CC(C)(C)CC2=O)c1	·	0
COC(=O)c1ccc(CSCC(=O)Nc2ccccc2)cc1	0.0	12
CCOc1ccc(CN2CCN(Cc3ccco3)CC2)cc1	-4.0	15
Cc1nc(-c2cccs2)cs1	-0.9	17
Nc1nc(SCC(=O)NCCN2CCOCC2)nc2sc3c(c12)CCC3	·	28
CCN(CC)C(=S)SCc1cn2cccc(C)c2n1	1.0	11
CONc1nc(NC(C)(C)C)nc(OCC#N)n1	0.1	3
COc1ccc(C(=O)CSc2nnc(C)s2)cc1OC	-0.4	4
N#CC1(O)CCN(Cc2ccccc2)CC1	13	·
Cc1cc(N2CCOCC2)ccc1/C=N/n1cnnc1	-1.8	6
Cc1cc(=O)n(CC(=O)Nc2ccc3c(c2)OCO3)c2c1c(C)nn2-c1cccc(F)c1	·	0
CCOC(=O)Cn1cc(I)c(=O)[nH]c1=O	·	38
NCCNC(=O)CCc1n[nH]c(=O)c2ccccc12	0.5	11
Cc1ccc(Cc2ccc(NN)nn2)cc1	1.2	·
O=C1CCC(=O)N1CCCn1c2ccccc2c2nc3ccccc3nc21	·	26
COc1ccc(NC(=O)CC(c2ccc(F)cc2)c2ccco2)cc1 (stereo not drawn)	·	12
COC(=O)c1ccc(OCC(O)CN2C(C)(C)CC(O)CC2(C)C)cc1 (stereo not drawn)	·	-16
Cc1ccc2c(c1)N(CC(=O)N1CCCC1)C(=O)c1cccnc1O2	·	14
O=C(/C=C/c1ccccc1)C1=C(O)C(=O)N(c2ccccc2)C1c1ccccc1 (stereo not drawn)	3.4	15
CS(=O)(=O)N(CC(=O)N1CCCC1)Cc1ccc(F)cc1	-0.3	-2
CCOC(=O)c1c[nH]c(=O)cc1O	-1.8	·

Reprinted at random: 7 compounds from above
SMILES	MgrA DNA FP	Sa helicase inh
CC1=CC(=C2C(=O)NC(=S)NC2=O)C=C(C(F)(F)F)N1CCN(C)C	·	-5
CONc1nc(NC(C)(C)C)nc(OCC#N)n1	0.1	3
COC(=O)c1ccc(N2C(=O)C(C)SC2c2ccccc2)cc1 (stereo not drawn)	-1.6	20
Cc1ccc2c(c1)N(CC(=O)N1CCCC1)C(=O)c1cccnc1O2	·	14
Cc1cc(N2CCOCC2)ccc1/C=N/n1cnnc1	-1.8	6
Cc1cc(=O)n(CC(=O)Nc2ccc3c(c2)OCO3)c2c1c(C)nn2-c1cccc(F)c1	·	0
COC(=O)c1ccc(OCC(O)CN2C(C)(C)CC(O)CC2(C)C)cc1 (stereo not drawn)	·	-16

(cont.)
SMILES	MgrA DNA FP	Sa helicase inh
COc1ccccc1C(=O)COC(=O)C1CCN(S(=O)(=O)c2cccs2)CC1	·	6
O=C(C1COc2ccccc2O1)N1CCc2ccccc21 (stereo not drawn)	·	23
Cc1cccc(OCC(=O)NC(=S)Nc2ccc(-c3nc4ccccc4o3)cc2)c1	0.0	-13
O=C(O)c1ccc(N=C2NC(=O)C(CO)(CO)S2)cc1	0.5	0
COCC(C)Nc1nc2c(s1)CCCC2 (stereo not drawn)	·	12
O=C(NC1CCCc2ccccc21)c1cc(C2CC2)[nH]n1 (stereo not drawn)	·	-11
Cc1c(Cl)cccc1NC(=O)Nc1cccc(Cn2cccn2)c1	0.3	4
CCOC(=O)NC12CC3CC(CC(C3)C1)C2	·	26
COc1cc(C2NC(=O)NC(C)=C2C(=O)OCC(F)(F)F)ccc1OCc1ccccc1 (stereo not drawn)	2.4	·
Cc1cc2nc3s/c(=C/c4ccc(N5CCN(C)CC5)c([N+](=O)[O-])c4)c(=O)n3c2cc1C	3.0	·
Cc1ccc(NC(=O)NC(=O)CN2CCC(C)CC2)c(C)c1	·	17
COc1ccc2c(c1)c(C#N)c1n2CCN=C1N(C)C	-0.1	14
COc1ccccc1NC(=O)CN(Cc1ccco1)C(=O)c1cccs1	·	-7
C=CCC1c2cccc(C(=O)O)c2C(=O)N1c1cccc(C)c1 (stereo not drawn)	·	15
Cc1ccnc(NS(=O)(=O)c2ccc(NC(=O)/C=C/c3ccccc3)cc2)n1	-0.9	9
C=CCn1c(C2CC(=O)N(c3ccccc3)C2)nc2ccccc21 (stereo not drawn)	·	22
O=C(Cc1c(F)cccc1Cl)OCC(=O)c1ccccc1	-2.2	-2
COc1ccc(NC(=O)c2cnn3c(C(F)(F)F)cc(-c4cc(OC)c(OC)c(OC)c4)nc23)c(OC)c1	-0.9	·
O=C1C2ON(c3ccccc3)C(c3cccs3)C2C(=O)N1c1ccccc1 (stereo not drawn)	·	-29
S=c1nc(N2CCCCC2)[nH]c(N2CCCCC2)n1	-2.8	13
O=C1c2ccccc2C2CC(c3cc(Cl)ccc3Cl)=NN12 (stereo not drawn)	-0.1	·
O=C(NCC1CCCO1)C1CCCCC1 (stereo not drawn)	-3.3	15
CCOC(=O)c1cnc(SCc2nc(-c3ccc(C)cc3)oc2C)nc1N	·	-13
CC(=O)N(C(C)=O)c1cc(C)c(C#N)c2nc3ccccc3n12	0.4	·
CCOC(=O)c1c(NC(=O)CC2CCCC2)sc(C)c1C	4.2	-15
CCOC(=O)/C=C1\SCC(=O)N1CC(=O)OCC	·	-10
CC(C)Oc1ccc2c(C(F)(F)F)cc(=O)oc2c1	-0.4	8
CCS(=O)(=O)c1ccccc1C(=O)Nc1sccc1C(=O)NC	·	7
CN(C)c1cccc(N(C)C)c1CNS(=O)(=O)c1cc(Cl)sc1Cl	0.7	·

High-throughput results: PubChem BioAssay, ICCB-Longwood Screening Facility, Harvard Medical School
